YopH PTP inh: YopH tyrosine phosphatase inhibitors, primary screen, biochemical, fluorescence Ex485/Em525 | YopH tyrosine phosphatase [Yersinia enterocolitica] | inhibition, %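 (about 10 µM by stock and volumes)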 | 140,000 tested, 0.16% active | AID 898, 2007;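 active means inhibition of 50% or more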;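 further: controls were vehicle for no effect and minimum signal wells for full effect; inactives centre near -20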
Mtb betalactam: beta-lactam sensitization of Mtb H37Rv, H37Rv. 330,000 tested, 0.27% active. M. tuberculosis H37Rv growth with meropenem, percent inhibition; hits of this screen are not shown here. inhibition, % at 25 µM. AID 434955, 2010;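 active means about 74% or more and at least 40 points above the plate without the antibiotic, then above 30% in a dose series; inconclusive means first-round hits that could not be retested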;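 further: growth measured after seven days incubation then overnight dye step; 0% = bacteria only wells and 100% = bacteria with antibiotic; twin plates without the antibiotic show which effects depend on it; some results filed as inactive read as strong as hits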
RecA splice inh: Mtb RecA intein splicing inhibitors, primary screen, biochemical, fluorescence, HTS | Protein RecA (Mycobacterium tuberculosis (strain ATCC 25618 / H37Rv)), P9WHJ3 | cell-free RecA intein splicing | inhibition, %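 (about 9 µM by stock and volumes)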 | 290,000 tested, 0.75% active; in the data active means inhibition above about 30%; inconclusive means no clear call, values can overlap the other calls;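 further: 0% = vehicle wells and 100% = reference inhibitor control wells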
Target sequence (P9WHJ3 whole entry, looked up, canonical isoform): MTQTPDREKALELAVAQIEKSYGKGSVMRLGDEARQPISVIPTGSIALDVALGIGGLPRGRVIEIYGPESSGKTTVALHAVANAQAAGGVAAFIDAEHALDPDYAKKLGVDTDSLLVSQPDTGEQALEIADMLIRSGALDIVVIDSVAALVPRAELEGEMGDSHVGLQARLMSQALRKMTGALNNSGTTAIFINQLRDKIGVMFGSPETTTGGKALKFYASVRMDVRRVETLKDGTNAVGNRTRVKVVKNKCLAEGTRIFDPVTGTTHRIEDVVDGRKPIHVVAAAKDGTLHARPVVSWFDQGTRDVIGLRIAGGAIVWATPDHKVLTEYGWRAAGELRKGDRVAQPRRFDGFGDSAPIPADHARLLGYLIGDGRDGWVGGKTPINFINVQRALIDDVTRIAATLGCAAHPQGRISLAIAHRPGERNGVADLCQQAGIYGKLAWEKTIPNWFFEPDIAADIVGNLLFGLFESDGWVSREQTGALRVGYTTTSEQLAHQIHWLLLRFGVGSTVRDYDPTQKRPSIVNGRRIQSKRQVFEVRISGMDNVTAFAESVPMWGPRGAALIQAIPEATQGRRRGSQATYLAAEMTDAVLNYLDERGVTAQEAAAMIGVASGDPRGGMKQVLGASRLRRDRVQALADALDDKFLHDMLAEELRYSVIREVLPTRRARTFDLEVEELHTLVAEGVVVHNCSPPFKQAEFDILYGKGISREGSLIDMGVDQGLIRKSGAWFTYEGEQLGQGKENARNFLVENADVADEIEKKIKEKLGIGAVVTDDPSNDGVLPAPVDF
Mtb growth: M. tuberculosis H37Rv growth inhibitors, H37Rv strain (AID 1626); one-dose inhibition, % at 10 µM; IC50 in µM for titrated hits; M. tuberculosis H37Rv growth inhibition; higher % means a stronger effect; 220,000 tested, 0.95% active;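 active means confirmed in a dose series; inconclusive means inhibition above 80% but not taken into the dose series; inactive means below 80% or under 30% at every dose of the series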;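 further: bacteria incubated seven days before Alamar blue readout; 0% = bacteria only wells and 100% = bacteria with antibiotic wells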
Arbovirus anti: antivirals against arbovirus infection, primary screen, cell-based, full library, 10K replicate subset; arbovirus infection cell-based antiviral screen; 200,000 tested, 0.37% active; AID 1251, 2008; inhibition, % at 10 µM;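 active means inhibition from about 30%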;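 further: bluetongue infection of BSR cells; cell survival read as ATP light after 72 h; 0% = infected wells without compound and 100% = uninfected wells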
Arbovirus anti repeat: recorded beside Arbovirus anti, whose call it bears; inhibition, %; measured here: 10K subset replicate screen; many hits read low in the repeat;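 first of two repeat runs on a subset; 0% = infected and 100% = uninfected wells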
An asterisk follows results filed as active; ? = inconclusive; . = no result given.

SMILES | YopH PTP inh | Mtb betalactam | RecA splice inh | Mtb growth | Arbovirus anti | others
O=C(Nc1ccsc1C(=O)N1CCCCCC1)c1ccccc1 | -18 | 0 | -0.6 | 4% | -10
C/C(=N\NC(=O)c1nnn(-c2nonc2N)c1-c1cccs1)c1ccc(C)cc1 | . | 2 | 2.8 | . | .
COc1cc(OC)cc(-c2nc3nc(C)c(CCC(=O)O)c(C)n3n2)c1 | -40 | -6 | -0.1 | 3% | 3
CC(=O)N1CCN(C(=O)CCC(=O)O)CC1 | . | -5 | -0.6 | . | .
CCOc1ccccc1NC(=O)CCS(=O)(=O)c1ccc(Br)cc1 | . | -5 | -4.6 | . | .
O=C(NC1CC1)c1sc2ccccc2c1Cl | . | -4 | 0.8 | . | .
CN1CCN(S(=O)(=O)Cc2ccccc2Cl)CC1 | . | -13 | -0.9 | . | .
COc1cc(C(=O)Nc2ccc(O)cc2C(=O)O)ccc1OC(C)=O | -14 | 4 | -5.6 | -3% | 5
COc1ccccc1NC(=O)Nc1ccc(Cc2ccncc2)cc1 | . | 4 | 5.8 | -4% | -19
CCCCN(C)CCCNC(=O)CS(=O)Cc1nc(-c2ccc(OC)c(OC)c2)oc1C (configuration not stated) | -39 | -2 | -0.8 | -8% | 10
C=CCNC(=O)c1ccccc1NC(=O)c1ccc(Cl)c(S(=O)(=O)Nc2cccc(C)c2C)c1 | -26 | 1 | 5.2 | 7% | -8
O=c1c2ccccc2ncn1Cc1ccc2c(c1)OCO2 | . | -7 | 0.6 | . | .
Cc1ccc(C)c(N2CCN(C(=O)CNS(=O)(=O)c3cccs3)CC2)c1 | -21 | -2 | -1.3 | 6% | 3
Cc1cc(C)nc(SCC(=O)N(C)CC(=O)Nc2ccccc2Br)n1 | . | -9 | 0.3 | . | .
C/C=C/c1ccc(OCCSc2nc(C)cc(=O)[nH]2)c(OC)c1 | -41 | -7 | -1.9 | 4% | 8
C=C(C)CNC(=S)Nc1nc2c(cc1C(=O)OCC)CCCC2 | -18 | . | -0.2 | -5% | 7
NC(=O)CSc1cn(CCNC(=O)c2cccs2)c2ccccc12 | . | 5 | 0.5 | 3% | 3 | Arbovirus anti repeat=1
COc1ccc(C(=O)Nc2ccncc2)cc1[N+](=O)[O-] | . | 0 | 39* | . | .
CCOCCn1c(=O)c2c(nc3n2CCCN3Cc2ccccc2)n(C)c1=O | . | 0 | 3.0 | . | .
CC(=O)c1sc(C(=O)O)c(-c2ccco2)c1-c1ccco1 | . | 7 | . | -1% | .
CN(C)c1ccc(CNn2cnnc2SCc2ccc(F)cc2)cc1 | -40 | 5 | -0.2 | 7% | 4
COc1cc2oc(=O)c3c(c2cc1OCC(=O)c1c(C)n(C)c2ccccc12)CCCC3 | -26 | 2 | 1.1 | 9% | -2
CCOC(=O)Cc1csc(NC(=O)COc2ccc3c(c2)CCC3)n1 | . | -2 | 2.6 | . | .
COCc1ccc(CN2CCC(Oc3ccc(C(=O)NCc4ccccn4)cc3)CC2)o1 | . | -1 | -2.9 | . | .
Cc1csc(CN(C)C(=O)C2CCC(=O)N(Cc3ccc(Cl)cc3)C2)n1 (configuration not stated) | . | 3 | -1.3 | . | .

Overlap with the part before: 6 compounds, then new ones.
SMILES | YopH PTP inh | Mtb betalactam | RecA splice inh | Mtb growth | Arbovirus anti | others
CC(=O)c1sc(C(=O)O)c(-c2ccco2)c1-c1ccco1 | . | 7 | . | -1% | .
CN(C)c1ccc(CNn2cnnc2SCc2ccc(F)cc2)cc1 | -40 | 5 | -0.2 | 7% | 4
COc1cc2oc(=O)c3c(c2cc1OCC(=O)c1c(C)n(C)c2ccccc12)CCCC3 | -26 | 2 | 1.1 | 9% | -2
CCOC(=O)Cc1csc(NC(=O)COc2ccc3c(c2)CCC3)n1 | . | -2 | 2.6 | . | .
COCc1ccc(CN2CCC(Oc3ccc(C(=O)NCc4ccccn4)cc3)CC2)o1 | . | -1 | -2.9 | . | .
Cc1csc(CN(C)C(=O)C2CCC(=O)N(Cc3ccc(Cl)cc3)C2)n1 (configuration not stated) | . | 3 | -1.3 | . | .
COc1ccc(-c2nc(SCc3ccccc3)n(C(=O)c3ccco3)n2)cc1 | -10 | 11 | 0.9 | -2% | -12
Cn1cccc1/C=C1\CC(C(C)(C)C)C/C(=C\c2cccn2C)C1=O (configuration not stated) | 5 | -4 | -0.8 | -1% | -33
COc1ccc(CCNC(=O)CN2C(=O)COc3ccc(S(=O)(=O)N4CCOCC4)cc32)c(OC)c1 | . | -3 | 6.2 | . | .
CC(C)CSc1n[nH]c(N)n1 | . | 2 | -2.1 | 3% | 4
O=C(CCNS(=O)(=O)c1ccccc1F)N1CCN(S(=O)(=O)c2cccc(F)c2)CC1 | . | -11 | -2.9 | . | .
C#CCCOC(=O)Nc1ccccc1 | . | 4 | 0.1 | 5% | .
CC(NS(=O)(=O)c1ccc(Cl)c(Cl)c1)C(=O)OCC(=O)Nc1ccc2c(c1)OCO2 (configuration not stated) | . | -7 | 3.2 | 1% | -6
COc1ccc(CN2CCN(Cc3ccccc3F)CC2)c(OC)c1 | . | -3 | 0.5 | . | .
COc1ccccc1C(=O)N1CCN(Cc2cccnc2)CC1 | . | 1 | -2.9 | . | .
CCn1c(SCC(=O)N/N=C/C=C\c2ccccc2[N+](=O)[O-])nnc1-c1ccccc1 | -29 | -9 | -0.2 | -7% | 2
O=C(O)CN1C(=O)C2C3CC(C2C1=O)C1C(c2ccc(Cl)cc2)c2sc(=O)[nH]c2SC31 (configuration not stated) | . | -3 | -1.1 | 1% | -2
Cc1cc(Br)ccc1OCCCCN1CCCCC1 | . | -4 | 1.0 | 3% | -27
CCOC(=O)c1c(-c2ccc(C)cc2)csc1/N=C(\C)C1=C(O)c2ccccc2C1=O | . | -4 | -0.2 | 7% | .
Cc1nnc(SCC(=O)NC2CC2)n1-c1ccccc1 | . | 0 | -0.6 | . | .
CC(C)CNC(=O)NC(=O)COc1ccc(C=O)cc1 | 0 | -9 | 0.3 | . | -2
CCOC(=O)c1c(-c2cccs2)csc1NC(=O)CN1CC(C)OC(C)C1 (configuration not stated) | -42 | 84 | 0.7 | 6% | -2
Nc1ncnc(NCc2ccccc2)c1[N+](=O)[O-] | -43 | -1 | -0.1 | 1% | 14
COc1ccc(N2CCN(C(=O)c3ccc(CS(=O)Cc4ccc(C)cc4)o3)CC2)cc1 (configuration not stated) | . | -1 | 0.2 | . | .
COc1ccc(CNc2ccc(N3CCOCC3)cc2)cc1 | . | 1 | -3.0 | . | .
COc1ccc(OCCCC(=O)Oc2ccc(OC)cc2)cc1 | -28 | -9 | -1.4 | 8% | 15
Cc1nc(C)c(C(=O)O)c(-c2cccs2)c1C(=O)O | . | -10 | -2.0 | 1% | .
O=C(Nc1cccc2cccnc12)c1cccc2ccccc12 | -32 | 12 | -0.8 | 8% | 0
O=C(Cn1c(=O)c2cccn2c2cccnc21)N1CCN(c2ccccc2F)CC1 | . | -5 | -1.8 | . | .
Oc1ccccc1-[n+]1c(-c2ccccc2)cc(-c2ccccc2)cc1-c1ccccc1 | . | 100 | 12 | . | .
c1ccc(Sc2nc(N3CCCCC3)nc(N3CCCCC3)n2)nc1 | -11 | 0 | 7.7 | -4% | 8 | Arbovirus anti repeat=-6
SMILES | YopH PTP inh | Mtb betalactam | RecA splice inh | Mtb growth | Arbovirus anti | others
Cc1cccc(/C=N/NC(=O)c2cccc([N+](=O)[O-])c2)n1 | . | 12 | -2.2 | -5% | 5
O=C(O)CCC(=O)N(Cc1cccnc1)Cc1cccc(F)c1 | -12 | -8 | -0.7 | -8% | 3
CCn1c(-c2ccc(C)cc2)n[nH]c1=S | -19 | 6 | 1.1 | -3% | -4
COC(=O)[C@@]1(Cc2ccc(F)cc2)[C@H]2c3cc(C(=O)N(C)C)n(CCSCCO)c3C[C@H]2CN1C(=O)c1ccccc1 | -20 | -9 | 2.3 | 2% | 12
CCN(CC)S(=O)(=O)c1ccc(N2CCOCC2)c(NC(=O)c2ccccc2F)c1 | . | -3 | -2.1 | 9% | -8
Cc1cc(C(=O)N/N=C/c2c(C)[nH]n(-c3ccccc3)c2=O)n[nH]1 | . | 2 | 55* | . | .
CC1CCCN(C(=O)CCNC(=O)c2ccccc2Cl)C1 (configuration not stated) | . | 5 | 0.8 | . | .
O=C(O)c1cccc(N2C(=S)N=C(Nc3ccccc3)C23CCCCC3)c1 | . | 7 | -1.3 | 0% | 2
CCc1cc(Br)ccc1N1C(=O)C2CC=CCC2C1=O (configuration not stated) | 10 | -20 | -0.5 | -6% | -5 | Arbovirus anti repeat=0
Cc1oc2nc(SCCCC(=O)NCCCO)nc(N)c2c1C | -15 | -2 | -2.5 | . | 0
Cn1cc(CN2CCN(c3ccccc3)CC2)c2ccccc21 | -19 | -6 | 0.3 | 3% | 36*
O=C(CNC(=O)c1ccc2c(c1)OCO2)N/N=C(Br)/C=C/c1ccccc1 | -27 | 61 | 7.7 | ? | 0
CCOC(=O)c1c(C)[nH]c(=S)c(C#N)c1-c1ccccc1 | -37 | 8 | 3.8 | 1% | 1
CN(C)/C=N/c1nccc(-c2cccs2)n1 | . | 4 | 0.0 | 3% | 1
O=C(/C=C/c1cccnc1)c1cccc(O)c1 | . | 100 | -0.8 | . | .
CC1/C(=C\c2ccc(Cl)cc2)C(=O)C2CC1C2(C)C (configuration not stated) | 15 | -1 | 8.3 | 6% | -9
Cc1cc(C(=O)NNc2ccc(C)c(C)c2)no1 | . | 5 | -3.1 | -10% | .
Cc1ccc(N2C(=O)c3ccccc3C2O)nc1 (configuration not stated) | -23 | -7 | -3.0 | . | -16
CCOC(=O)c1c(CN2CCN(C)CC2)n(C)c2cc(Br)c(OC)cc12 | -17 | . | 2.3 | -4% | -22
CN(Cc1nccn1C)C(=O)CC1C(=O)NCCN1Cc1cccc(Oc2ccccc2)c1 (configuration not stated) | . | -4 | 1.6 | 3% | 1
CCN(CC)CCCN(C)C(=O)Cn1nc(Cc2ccncc2)c2ccccc2c1=O | . | 3 | -1.6 | . | .
CC(/C=C/c1ccc(N(C)C)cc1)=N\N=C(/N)SC1CC(=O)N(c2ccc(C(=O)O)cc2)C1=O (configuration not stated) | 19 | ? | -28 | 9% | -10
CCC(C)(C)n1nnnc1C(c1ccccc1)N1CCN(C2CCCC2)CC1 (configuration not stated) | -20 | 7 | -1.5 | 2% | 1
O=C(O)CSc1nnc(-c2ccc(Cl)cc2Cl)n1-c1ccccc1 | . | 0 | 1.5 | . | .
COc1cc(C=O)ccc1Oc1nnnn1-c1ccc(C(N)=O)cc1 | -14 | . | 5.7 | 1% | 3
SMILES | YopH PTP inh | Mtb betalactam | RecA splice inh | Mtb growth | Arbovirus anti | others
CCc1ccccc1NC(=O)c1cnc2n(c1=O)CCS2 | -27 | 1 | 1.9 | 1% | 13 | Arbovirus anti repeat=-5
O=C(CCc1ccccc1)Nc1cc(Cl)ccc1O | -18 | 1 | 5.2 | -8% | 3
CCc1ccc(NC(=O)c2n[nH]c(=O)c3ccccc23)cc1 | . | -4 | -0.3 | 0% | .
O=C(Nc1ccc(N2CCOCC2)cc1)C1CCN(S(=O)(=O)c2ccc3c(c2)OCCO3)CC1 | . | -10 | 1.4 | -1% | -11
COc1ccc(OCC(=O)N2CCC(n3nccc3NC(=O)C3CC3)CC2)cc1 | . | -6 | 4.0 | . | .
C=Cn1ccnc1P(=S)(c1nccn1C=C)C1CCCCC1 | -6 | 4 | 0.4 | -4% | 7 | Arbovirus anti repeat=-1
O=C(CSc1ccc(F)cc1)Nc1ccc(Br)cc1 | . | 17 | 4.4 | 80% | 4
CCC(=O)c1ccc(OCC(O)CN2CCN(C(c3ccccc3)c3ccccc3)CC2)cc1 (configuration not stated) | -9 | . | 2.0 | ? | 5
CC(C)N(C)CCOC(=O)c1ccccc1Cl | -29 | -5 | -2.1 | 1% | 2
COc1ccc(CN(Cc2nc3ccccc3c(=O)[nH]2)C(=O)c2ccco2)cc1 | . | 0 | 0.4 | . | .
O=C(COc1ccc(Br)cc1Br)NNC(=O)c1cccs1 | . | -1 | 4.2 | . | .
c1cncc(Nc2c3ccccc3nc3ccccc23)c1 | . | 3 | -3.2 | . | .
CC1=CCC2C(=O)N(c3cccc(C(=O)Nc4ccc(Cl)cc4)c3)C(=O)C2C1 (configuration not stated) | . | -9 | 6.8 | . | .
CCCNS(=O)(=O)c1ccc(CCC(=O)N2CCC(C)CC2)cc1 | -6 | ? | 2.0 | -11% | -6
CC(=O)CCSc1ncnc2sc(-c3ccccc3)cc12 | . | 93 | 0.8 | . | .
N#Cc1ccc(-c2csc(NC3=NCCCCC3)n2)cc1 | -32 | . | 3.7 | 67% | -3
Cc1cc(-c2nnc(SCC(=O)Nc3nccs3)o2)no1 | . | 0 | 1.2 | 0% | .

Screening data (PubChem)

The list is partial; count on the stated rates, not on these rows.
